Bioassay records: PubChem BioAssay, National Center for Advancing Translational Sciences (NCATS)
nsP2pro primary = inhibitors of chikungunya virus nsP2 protease; Q8JUX6; FRET peptide cleavage, nsP2pro, fluorescence 1 h; Potency, µM (highest dose often 24.9 µM), for inactives: at the top dose activity change, negative = inhibition, actives largely listed as inhibitors; actives 1.1% (n = 31,000); AID 1964107; active means well fitted inhibition curve with a large enough effect; inconclusive means small, poorly fitted or top-dose-only effect; inactive means no such curve, though single readings can be large or run the other way; also: nearly all actives have a fitted effect of over 60% in size; a reference inhibitor and vehicle were the controls
* = called active by the depositor; i = inactive; ? = inconclusive; & = joins results of further samples; [ ] = dose if it differs, or a comment. % is scaled to controls: 0 for no effect and ±100 for the full control effect; potency is read from the fitted curve at half-maximal effect. The list is partial; the hit share may differ from the screen's.

A first look (3 entries):
SMILES	nsP2pro primary
Cc1ccnc(NC(=S)N2CC3CN(c4ccc(Cl)cc4C(F)(F)F)CC3C2)c1 (stereo not drawn)	i
O=C(CC1CCCCC1)N1CC(n2cc(COCC3CC3)nn2)C1	-5.8%
CC(C)=CCC/C(C)=C/CO[C@@H]1O[C@H](CO)[C@@H](OC(=O)/C=C/c2ccc(O)cc2)[C@H](O[C@@H]2O[C@@H](C)[C@H](O)[C@@H](O)[C@H]2O)[C@H]1O	19.3%[10 µM]

Main list, previewed entries included:
SMILES	nsP2pro primary
Cc1ccnc(NC(=S)N2CC3CN(c4ccc(Cl)cc4C(F)(F)F)CC3C2)c1 (stereo not drawn)	i
O=C(CC1CCCCC1)N1CC(n2cc(COCC3CC3)nn2)C1	-5.8%
CC(C)=CCC/C(C)=C/CO[C@@H]1O[C@H](CO)[C@@H](OC(=O)/C=C/c2ccc(O)cc2)[C@H](O[C@@H]2O[C@@H](C)[C@H](O)[C@@H](O)[C@H]2O)[C@H]1O	19.3%[10 µM]
CC(=O)c1cccc(NC(=O)C2CCCN(c3nnc(-n4cccc4)s3)C2)c1 (stereo not drawn)	-20.4%
CN(CCCCCCN(C)C(=O)Oc1ccc[n+](C)c1)C(=O)Oc1ccc[n+](C)c1	-4.2%
O=C(Cc1cccc(Cl)c1)N1CCC(C(=O)N2CCC(c3ccccc3)CC2)CC1	-1.7%
Cc1noc(C)c1[S+](=O)([O-])N(C)Cc1ccc(-c2ccccc2)cc1	-2.6%
CC1=C(C)C(=O)OC(C(C)C2C(O)CC3C4C5OC5C5(O)CC(OC6OC(CO)C(OC7OC(C)C(O)C(O)C7O)C(O)C6O)CC(O)C5(C)C4CCC32C)C1 (stereo not drawn)	?
CC(=O)OCC(=O)[C@@]1(O)CC[C@H]2[C@@H]3CCC4=CC(=O)C=C[C@]4(C)[C@H]3[C@@H](O)C[C@@]21C	-1.0%&7.6%
Oc1c(C(c2ccccc2F)N2CCC3(CC2)OCCO3)sc2nc(-c3ccco3)nn12 (stereo not drawn)	-19.4%
CCC(=O)OCC(=O)[C@]1(OC(=O)CC)[C@H](C)C[C@H]2[C@H]3[C@H]([C@@H](O)C[C@@]21C)[C@@]1(C)C=CC(=O)C=C1C[C@H]3Cl	2.4%
O=C(CC1NCCC[C@H]1O)Cn1cnc2cc(Br)c(Cl)cc2c1=O (stereo partly drawn)	-6.9%
Cc1ccc(Sc2ccccc2N2CCNCC2)c(C)c1	38.7%[activator]
C[C@@H]1NC(=O)[C@@H]2CCCN2C(=O)[C@H](CC(N)=O)NC(=O)[C@@H]2CSSC[C@H](N)C(=O)N[C@H]3CSSC[C@H](NC1=O)C(=O)N[C@@H]([C@@H](C)O)C(=O)NCC(=O)N[C@H](C(=O)N[C@@H](Cc1ccc(O)cc1)C(=O)O)CSSC[C@H](NC(=O)[C@H](Cc1ccc(O)cc1)NC(=O)[C@H](CCC(=O)O)NC3=O)C(=O)N2	42.2%[activator][10 µM]
CCCCCCCCCC(=O)OC1CC[C@H]2[C@@H]3CCC4=CC(=O)CC[C@@H]4[C@H]3CC[C@]12C (stereo partly drawn)	-14.4%
O=C(C1CC1)N1CCC(Cc2noc(-c3ccncc3)n2)C1 (stereo not drawn)	i
CNc1oc(-c2ccc3cnccc3c2)nc1C#N	-12.3%
Cc1noc([C@@H]2CN(C(=O)CCc3nc4ccccc4s3)C[C@H]2C(N)=O)n1	-2.1%
OCC1(Cc2ccc(F)cc2F)CCCN(c2cnc3ccccc3n2)C1 (stereo not drawn)	-23.2%
CCc1cc(=O)n(CC(=O)NCc2ccc(OC)c(OC)c2)c(-c2ccccc2)n1	i
O=C(/C=C/c1ccccc1Br)NCCc1nc2ccccc2[nH]1	3.4%
Cc1ccc2nc(NC(=O)CSc3[nH]c(=O)ncc3C)sc2c1	-3.1%
Cc1ccccc1-c1noc(-c2ccc(N3CCN(C)CC3)c([N+](=O)[O-])c2)n1	-16.5%
CN(C)c1ccc(CNC(=O)c2ccc(NC(=O)N3CCCCc4ccccc43)cc2)cc1	-16.4%
COc1ccc(C(=O)/C=C/c2cn(CC(O)CN3CCCCCC3)c3ccccc23)cc1OC (stereo not drawn)	6.1%
Cn1cc(-c2ccc(F)c(C(F)(F)F)c2)nc1C1CCN(c2ncnc3[nH]ncc23)CC1	-4.6%[10 µM]
COC(=O)[C@H](Cc1ccc(OC)cc1)NC(=O)[C@H]1CN(S(=O)(=O)c2ccccc2)CCN1S(=O)(=O)c1ccccc1	1.8%
COc1cc2ncnc(Nc3ccc(Oc4ccccc4)cc3)c2cc1OC	49.0%[activator]
Cc1nnn2c(C(=O)NCc3ccc(Cl)cc3)cccc12	i
Cc1ccc(OCCn2c(CCNC(=O)c3ccc(Br)o3)nc3ccccc32)cc1	-2.2%
C=CC(N)CCC(=O)O (stereo not drawn)	-6.3%[10 µM]
CC(C)(C)C(=O)Nc1nc2c(s1)C[C@@H]1[C@](C)(CO)[C@H](O)CC[C@@]1(C)[C@@H]2CC(=O)O	?
Cc1nc(NCc2ccccc2)c2nc(-c3ccccc3)n(C3CCN(Cc4ccccc4)C3)c2n1 (stereo not drawn)	i
COc1ccc(C(=O)N2CC[C@H](c3nnc(-c4ccccc4)o3)C2)cc1	-4.8%[39.2 µM]
Cc1ccc(S(=O)(=O)NCCC(=O)Nc2nc(-c3ccccc3)cs2)cc1	4.2%
COc1ccc(Oc2c(Cl)cnn(C3c4ccccc4-c4ccccc43)c2=O)cc1	27.6%
COc1ccc(-c2ccc(=O)n(CC(=O)Nc3ccc(OC)c(OC)c3)n2)cc1	-13.4%
COc1ccccc1NC(=O)CCn1cnc2ccccc2c1=O	-20.1%
CC1=CC2OC3[C@H](O)C[C@@](C)([C@]34CO4)[C@@]2(CO)[C@H](O)C1=O (stereo partly drawn)	0.313µM*
Cc1ccc(C(CC(=O)N2CCCCC2)c2cn(C)c3ccccc23)cc1 (stereo not drawn)	?
CCOc1ccc(N=C(C)Nc2ccc(OCC)cc2)cc1	?
CCCN(CCC)CCCNC(=O)C1CCC(CNS(=O)(=O)c2cccc3nsnc23)CC1 (stereo not drawn)	-27.8%
CN1C[C@@H](NC(=O)NC2CCCCC2)C[C@H]1c1nc(Cc2ccccc2)no1	-21.6%[39.2 µM]
COc1ccccc1N1CCN(C(=O)c2ccc(Nc3nc4ccccc4n4nnnc34)cc2)CC1	-13.8%
O=C(Nc1nnc(COc2ccc(Cl)cc2)s1)c1cccs1	-1.3%
OC1(c2ccc(Cl)cc2)c2ccccc2C2=NCCN21 (stereo not drawn)	14.8%
C[C@@H](O)[C@H](NC(=O)c1ccc(C#Cc2ccc(CN3CCOCC3)cc2)cc1)C(=O)NO	-9.5%
CCCCC(=O)N(Cc1ccc(-c2ccccc2-c2nnn[nH]2)cc1)[C@H](C(=O)O)C(C)C (tested in a mixture with another compound)	-12.8%
O=C(O)[C@@H]1CCCCN1	0.0%
CC12C=CC(=O)NC1CCC1C2CCC2(C)C(C(=O)Nc3cc(C(F)(F)F)ccc3C(F)(F)F)CCC12 (stereo not drawn)	-15.4%
Cc1noc(C)c1S(=O)(=O)N1CCC2(CC1)CC(OCC1CC1)CCO2 (stereo not drawn)	-5.7%
COc1ccc(-c2cc(C)no2)cc1S(=O)(=O)N1CC(C)Oc2ccccc21 (stereo not drawn)	-21.9%
CCC1CCCCN1C(=O)Cn1c(=O)n(CC2CCC(C(=O)NC)CC2)c(=O)c2sccc21 (stereo not drawn)	-11.7%
Cc1ccccc1Cn1c(SCc2ccc(C(=O)NC(C)c3ccccc3)cc2)nc2ccncc21 (stereo not drawn)	16.0%
Cc1ccc(S(=O)(=O)Nc2cnccc2C(=O)Nc2ccc(S(=O)(=O)Nc3nccs3)cc2)cc1	i
O=C(Nc1nc(-c2ccccc2)cs1)c1ccncc1NS(=O)(=O)c1ccc(F)cc1	i
COc1cccc(CNC(=O)c2ccc3c(c2)nnn3C2CCCC2)c1	-6.1%
CCN(Cc1ccccc1)C(=O)Cn1cc(S(=O)(=O)Cc2cccc(Cl)c2)c2ccccc21	-24.9%
Cc1ccc(CC(=O)N(Cc2nc(-c3ccc(C)cc3)no2)C(C)C)cc1	-10.5%
COC(=O)c1cc2oc3ccccc3c2n1Cc1cc(C)ccc1C	-26.5%

Other records follow.
SMILES	nsP2pro primary
CCc1cccc(CC)c1NC(=O)CN1C(=O)C(=O)c2ccccc21	-21.5%
CC(=O)N[C@H]1[C@H](O[C@H]2CC[C@@]3(C)C(CC[C@]4(C)C3CC=C3C5CC(C)(C)CC[C@]5(C(=O)O)C(O)C[C@]34C)C2(C)C)O[C@H](CO[C@@H]2O[C@H](C)[C@H](O)[C@H](O)[C@H]2O[C@@H]2OC[C@@H](O)[C@H](O)[C@H]2O)[C@@H](O)[C@@H]1O (stereo partly drawn)	13.4%[5.1 µM]
CN(Cc1ccccc1)C1(C(=O)NC2CCC(O)CC2)Cc2ccccc2C1 (stereo not drawn)	i
CCCOc1ccc(C2CC(=O)Nc3c2c(=O)n(C)c(=O)n3C)cc1OC (stereo not drawn)	-13.1%
C[C@H](c1ccc(F)cc1CCCC(=O)O)N(c1cc(F)ccc1F)S(=O)(=O)c1ccc(Cl)cc1	?
Cc1ccc(NC(=O)CCNc2c(C)nc3cnccn23)c(F)c1	i
CCC1CN(C(=O)N2CCC(C(=O)NCc3cccs3)CC2)c2cc(C)ccc2O1 (stereo not drawn)	-17.4%
CC(C)(C)C(=O)N[C@H]1C[C@@H](Cc2cc(CN3CCN(c4ccccc4)CC3)on2)C1(C)C	-2.3%
CCCc1cnc(C)nc1N1CC[C@@H](NC(=O)c2cnccn2)[C@H](O)C1	i
Cc1cccc(CCN2CCC3(CC2)C(C(=O)O)CC(=O)N3C)n1 (stereo not drawn)	-1.2%
CCOC(=O)c1cnc2ccc(OCC)cc2c1N1CCN(c2ccccc2F)CC1	-11.2%
CN1[C@@H](CCC(=O)N2CCN(c3ccccn3)CC2)CNC(=O)[C@@H]2[C@H]1CCN2Cc1ncc[nH]1	i
C=C(C)C(=O)O[C@H]1[C@@H]2[C@H](C)C(=O)O[C@@H]2C[C@@H](C)[C@@H]2C=CC(=O)[C@]21C	7.3%
CCOc1ccc(N(Cc2cc3cc(C)ccc3[nH]c2=O)C(=O)c2cccc(Cl)c2)cc1	-22.2%
Cc1ccc(-c2cc(C(=O)N3CC[S+](=O)([O-])CC3)c3ccccc3n2)cc1C	4.9%
C[C@@H]1C[C@H](O)/C=C/[C@H](O)[C@@H](O)CC(=O)O1	-17.3%
C/C=C/C=C/C(O)=C1/C(=O)[C@]2(C)C(=O)[C@@](C)(O)[C@H]1[C@H]([C@@]1(C)OC(=O)C(C)=C1O)[C@H]2C(=O)CC/C=C/C	2.3%[10 µM]
N#Cc1c(-c2ccco2)no[n+]1[O-]	-7.0%
CC(C)c1ccccc1-c1nccc(NCc2ccc(-c3ccnc(C(F)(F)F)c3)cc2)n1	-7.4%
O=[N+]([O-])c1nccn1CO[C@@H](CO)[C@H](O)CO	13.1%
CC(=O)c1c(O)cc2c(c1C)C(=O)CC(O)C2 (stereo not drawn)	11.2%
CS(=O)(=O)N1C[C@H]2CCN(C(=O)Cc3ccccc3Cl)C[C@H]21	-2.0%
CCN(CC)S(=O)(=O)c1ccc2oc(C(=O)Nc3ccc(Br)cc3F)c(C)c2c1	-22.7%
COc1ccc(C2=Nn3c(nnc3-c3ccccc3C(F)(F)F)SC2)cc1OC	i
CC(C)N1C(=O)[C@@H]2[C@@H](CCN2C(=O)CCCC(=O)O)N(Cc2cccc(F)c2)C1=O	-1.5%[39.2 µM]
CC(C)=CC[C@H]1O[C@]2(O)C([C@H]3CCC4[C@@]5(C)CC[C@H](O[C@@H]6O[C@H](CO)[C@H](O)[C@H](O[C@@H]7O[C@H](CO)[C@@H](O)[C@H](O)[C@H]7O)[C@H]6O[C@@H]6O[C@@H](C)[C@H](O)[C@@H](O)[C@H]6O)C(C)(C)C5CC[C@@]4(C)[C@]3(C)[C@H]2O)[C@@]1(C)O (stereo partly drawn)	4.4%[5.1 µM]
CCC1CCC(C(=O)Nc2ccc(S(=O)(=O)Nc3nccs3)cc2)CC1 (stereo not drawn)	i
COCCCn1c(=N)c(C(=O)NC2CCCC2)cc2c(=O)n3cccc(C)c3nc21	-30.7%
CCC(=O)c1cc(-c2ccc(Cl)cc2)n(-c2ccc(S(N)(=O)=O)cc2)c1C	4.1%
CC(=O)OC[C@@]12C(=O)C[C@@H](C)[C@]3(C[C@@H](c4ccoc4)OC3=O)[C@H]1CC[C@H](OC(C)=O)[C@]21CO1	-19.9%[10 µM]
Cc1cnc(C2CCNC2)n1Cc1ccccc1 (stereo not drawn)	i
O=C(NC1CCCCC1)N[C@H]1C[C@H]2C(=O)N3CCC[C@@H]3C(=O)N2C1	?
COc1cccc(-c2cn3c(n2)sc2cc(C(=O)NC4CCCCC4)ccc23)c1	-23.6%
COc1cccc(NC(=O)Nc2cc(-c3cn4cccnc4n3)ccc2C)c1	-24.4%
COC(=O)C1=CN(CC(=O)NCCCc2ccccc2)S(=O)(=O)N=C1C	-6.0%
CC(=O)[C@H]1CC[C@H]2[C@@H]3CC[C@@H]4C[C@H](O)CC[C@]4(C)[C@H]3CC[C@]12C	-21.6%

4 entries from above in another layout.
CCC(=O)c1cc(-c2ccc(Cl)cc2)n(-c2ccc(S(N)(=O)=O)cc2)c1C
  nsP2pro primary: 4.1%

CC(=O)OC[C@@]12C(=O)C[C@@H](C)[C@]3(C[C@@H](c4ccoc4)OC3=O)[C@H]1CC[C@H](OC(C)=O)[C@]21CO1
  nsP2pro primary: -19.9%[10 µM]

Cc1cnc(C2CCNC2)n1Cc1ccccc1 (stereo not drawn)
  nsP2pro primary: i

O=C(NC1CCCCC1)N[C@H]1C[C@H]2C(=O)N3CCC[C@@H]3C(=O)N2C1
  nsP2pro primary: ?
